Screens: PubChem, National Center for Advancing Translational Sciences (NCATS)
gsp agonist: gsp mutant agonism; AID 624287; 0.13% of 340,000 active; gsp mutant cells, cAMP HTRF, 30 min; control for the full effect not named in the record; Potency, µM (highest dose often 76.9 µM), for inactives: at the top dose activation (cAMP increase), hits mostly activators; active = well fitted activation curve with a large enough effect; inconclusive = small, poorly fitted or top-dose-only effect, or another doubt; inactive = no such curve, though single readings can be large or run the other way; cell line not stated here;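 further: phosphodiesterase inhibitor Ro 20-1724 added with compounds to block cAMP breakdown; potency means the concentration at half of the fitted maximal effect; nearly all actives have a fitted effect of over 60% in size; about a fifth of the inactives were tested at one dose only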
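Cells stably selected in G418 were plated at 2000/well, grown 16-24 hr, then given compounds in DMSO with the PDE inhibitor […] (300 uM solution added) for 30 min at 37C; cAMP was read by HTRF.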
PINK1 expr mod: PINK1 expression modulation. PINK1 immunofluorescence, high-content cytometry, 24 h. Potency, µM (top dose mostly 76.6 µM), for inactives: at the highest dose activation (PINK1 increase), most hits filed as activators. 0.2% of 410,000 active. AID 624263; active = well fitted activation curve with a large enough effect; inconclusive = small, poorly fitted or top-dose-only effect; inactive = flat fitted curve, though single readings scatter; cell line not stated here;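 further: potency means the concentration at half of the fitted maximal effect; % of control where 0% means no effect; nearly all actives have a fitted effect of over 65% in size; a mitochondrial uncoupler was the plate control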
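Readout is PINK1 immunofluorescence, quantified alongside mitochondrial, cell and nuclear markers by laser-scanning microplate cytometry. Cells from a stable line were exposed to compound titrations (5 concentrations) for 24 hours, with CCCP controls.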
gsp antag: antagonizes gsp, the McCune-Albright syndrome mutation; gsp-mutant cells, cAMP HTRF, 30 min; control for the full effect not named in the record; Potency, µM (highest dose often 76.9 µM), without a hit: at the highest dose activity change, negative = inhibition, actives largely listed as inhibitors; 0.4% of 340,000 active; AID 624288; active = falling curve of any shape with a large fitted effect; inconclusive = falling curve, mostly with a smaller effect; inactive = flat or rising curve; cell line not stated here;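 further: intracellular cAMP measured with PDE inhibitor Ro 20-1724 present during compound exposure; potency means the concentration at half of the fitted maximal effect; on the % scale 0 is the no-effect control and ±100 the full control effect; nearly all actives have a fitted effect of over 65% in size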
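Cells in G418 medium, seeded 16-24 h, 37C; buffer exchange to DPBS + 1 mM CaCl2, 0.5 mM MgCl2, 0.05% BSA; cpds in DMSO + […] (300 uM stock), 30 min 37C; HTRF cAMP detection.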
D2 ag: agonists of human D2 dopamine receptor (beta-arrestin) | 0.084% of 360,000 active | P14416 | activation, % (test concentration not listed) | DiscoveRx PathHunter D2 beta-arrestin, luminescence, 90 min; 100% = 57 uM dopamine signal | AID 624465; in the data active = activation above about 40%; inconclusive = about 15% to 40%; inactive = below about 15%; further: compound concentration not given in the record; the text of the record calls up to 30% inactive
Target sequence (P14416 whole entry, looked up): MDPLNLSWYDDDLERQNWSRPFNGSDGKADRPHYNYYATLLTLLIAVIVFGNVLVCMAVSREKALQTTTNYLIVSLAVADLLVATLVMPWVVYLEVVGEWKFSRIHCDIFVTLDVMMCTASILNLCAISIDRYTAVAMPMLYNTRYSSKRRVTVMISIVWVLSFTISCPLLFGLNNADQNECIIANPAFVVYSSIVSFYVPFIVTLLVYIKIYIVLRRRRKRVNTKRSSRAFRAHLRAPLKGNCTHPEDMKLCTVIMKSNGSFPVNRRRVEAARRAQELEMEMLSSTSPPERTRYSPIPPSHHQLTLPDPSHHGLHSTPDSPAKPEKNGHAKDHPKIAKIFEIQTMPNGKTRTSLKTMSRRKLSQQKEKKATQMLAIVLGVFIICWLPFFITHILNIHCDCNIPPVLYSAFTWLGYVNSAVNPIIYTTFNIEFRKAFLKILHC
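Agonist mode: compounds alone added to overnight-plated D2 PathHunter cells for 90 min at 37 C, with 57 uM final dopamine (EC100) defining full response. Beta-arrestin recruitment detected by chemiluminescent reagent, read after 1 h at ambient temperature.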
Menin MLL FP FL: displaces fluorescein MLL peptide from human menin; Fluorescence polarization, fluorescein-MLL peptide displacement from menin; FP activity change, % at 61.4 µM; 290,000 tested, under 10 active; AID 1766; inconclusive = falling polarisation curve, or a change in total fluorescence; inactive = total fluorescence flat and polarisation flat or rising; no compound was filed as active; the % refers to the polarisation; negative = inhibition;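 further: % of control where 0% means no effect; inhibitors lower the polarisation; unlabelled MLL peptide was the positive control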
Sfp PPTase inh: blocks B. subtilis Sfp PPTase activity | Q9F4F7 | Biochemical Sfp PPTase activity, qHTS | Potency, µM, without a hit: max response, negative = inhibition, actives largely listed as inhibitors | 3.5% of 310,000 active; active means well fitted inhibition curve with a large enough effect; inconclusive means small, poorly fitted or top-dose-only effect, or another doubt; inactive means no such curve, though single readings can be large or run the other way;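 further: the enzyme is Sfp with the accession as filed and its product quenches rhodamine fluorescence; potency means the concentration at half of the fitted maximal effect; 0% = enzyme reaction without inhibitor and -100% = no enzyme wells; top concentration of the series not given in the record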
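Fluorescence-quenching assay with 15 nM Sfp, 5 uM rhodamine-CoA and 12.5 uM BHQ-2-labelled ybbR peptide in pH 7.6 Hepes/MgCl2 buffer. Enzyme was pre-incubated with compound for 15 min at room temperature. Rate was taken from the 30-min fluorescence change (525/598 nm).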
ClpP mod: qHTS Assay for Activators of ClpP | purified B. subtilis ClpP, FRET peptide cleavage, 20 min | 1.9% of 340,000 active | Potency, µM (series often up to 57.5 µM), for the others: at the top dose activity change, negative = active; active = well fitted falling curve with a large enough effect; inconclusive = small, poorly fitted or top-dose-only effect; inactive = no such curve, though single readings can be large or run the other way; further: potency means the concentration at half of the fitted maximal effect; the source files actives as falling curves though it sought activators and does not explain the sign; nearly all actives have a fitted effect of over 65% in size; many hits overshoot -100%
Target sequence (P80244 whole entry, looked up): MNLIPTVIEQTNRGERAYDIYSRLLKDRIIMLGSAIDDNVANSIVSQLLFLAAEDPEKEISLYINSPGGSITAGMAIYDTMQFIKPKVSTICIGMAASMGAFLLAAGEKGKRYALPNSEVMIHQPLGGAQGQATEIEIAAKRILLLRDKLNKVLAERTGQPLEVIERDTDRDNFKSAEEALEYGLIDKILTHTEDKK
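ClpP 10 microg/mL final, pH 8 Tris/KCl buffer with BSA, glycerol, Tween-20; compound pinned in; FRET-FV substrate; RT 20 min; Ex320/Em430; ΔFRET vs ADEP 5.8 microM, DMSO, no enzyme.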
* hit, by the source's call; u = inconclusive; x = no result given; & = joins results of further samples; [ ] = another dose, or the depositor's remark. These rows are one share of the data, so the mix of outcomes need not match the whole.

SMILES | gsp agonist | PINK1 expr mod | gsp antag | D2 ag | Menin MLL FP FL | Sfp PPTase inh | ClpP mod
c1ccc(Nc2ccc(Nc3ccccc3)cc2)cc1 | x | 8.6% | 1.8% | 1.3 | x | x | u
CCOc1ccc(-c2c(C)n(-c3ccc(OCC)cc3)c3[n+]2CCCCC3)cc1 | u | 10µM* | u | 0.3 | 0.1 | 8.4% | x
COc1cc(Cn2c(N)c(C(=O)NCc3ccco3)c3nc4ccccc4nc32)cc(OC)c1OC | 1.7% | -2.2%[38.3 µM] | 16.7% | -4.4 | 12.1 | 56.2µM* | 28.2µM*
O=C(c1cccnc1)N1Cc2ccccc2-n2nncc2C1 | 10.2% | 1.2% | x | -10.3 | x | x | -1.8%
CCOC(=O)/C(CCCN(CC)CC)=N\O | 15.8% | -0.2% | 2.4% | -2.8 | 0.5 | -10.5% | -0.6%
CCCCc1nc2ccccc2c(=O)n1-c1ccccc1[N+](=O)[O-] | -11.0% | -1.0% | -4.7% | -1.6 | -0.1 | 13.9% | 0.3%
CNC(=O)OCCc1n(C)cc[n+]1C | -1.4%[15.4 µM] | -1.1% | 11.6% | -1.5 | 6.6 | -5.9% | 0.2%
C=Cn1c(P(=S)(N2CCOCC2)N2CCOCC2)cc2c1CCCC2 | -5.8% | -0.7%[38.3 µM] | -1.6% | 0.9 | 1.9 | -6.3% | -3.8%
CC1=C(N2CC2)C(=O)C(CO)=C(N2CC2)C1=O | -26.8% | 2.4% | -18.9% | x | x | x | 2.0%
NC(Cc1ccc(F)cc1)c1csc(Nc2cnccn2)n1 (configuration not stated) | x | 6.8% | x | -3.3 | x | x | -3.3%
O=C(O)c1cc(Oc2ccc(C(F)(F)F)cc2Cl)ccc1[N+](=O)[O-] | x | 2.8% | -2.2% | -2.6 | u | -1.5% | -0.2%
COC(=O)C1=C(c2cccc(C#N)c2)C[C@@H]2CC[C@H]1N2C(=O)NCc1cccc2ccccc12 | x | -0.2% | -10.8% | -0.2 | x | x | 0.8%
COc1cccc(C2(O)CCN(CC(=O)Nc3nc(C)cs3)CC2)c1 | 18.5% | 0.7% | 15.3% | 1.3 | -0.3 | -13.6% | -1.8%
COP(=S)(OC)Oc1ccc(SC)c(C)c1 | -50.2%[inhibitor] | 0.9%&-0.4% | -0.6% | 0.5 | -1.1&1.4 | 13.6%&-9.0% | -2.1%
COc1ccc(CCNC(=O)c2c(N)n(CCN3CCOCC3)c3nc4ccccc4nc23)cc1OC | 3.1% | -0.5%[38.3 µM] | -5.0% | 2.4 | 9.3 | -14.4% | -20.9%
COC(=O)CSc1nnc(CNC(=O)c2cccc(C)c2)n1-c1ccccc1OC | -56.0%[inhibitor] | 0.9% | 14.2% | -0.8 | 5.3 | 19.2% | -0.4%
CN1CC[C@]23c4c5ccc(O)c4OC2[C@H](O)C=CC3[C@H]1C5 (some centres not stated) | x | 0.0% | -2.1% | -2.1 | x | x | -1.8%
COc1ccccc1CN1CCN(C(=O)COc2cccc(C)c2)CC1 | -28.0% | -2.5%&0.4% | -2.1%[15.4 µM] | -5.0 | 0.7 | -24.7% | -0.2%&-0.8%
Cc1ccsc1-c1nc(CSCC(=O)N2CCC3(CC2)OCCO3)c(C)o1 | -62.1%[inhibitor] | -1.1% | -14.1% | -1.2 | 2.4 | 15.3% | 31.6µM*
CCN(CC)c1ccc(/C=C2\C(=O)NC(=S)N(c3ccc(OC)cc3OC)C2=O)o1 | 7.1%[15.4 µM] | -0.4% | -24.4% | -4.6 | x | x | -1.4%
O=C(Nc1ccc(OC(=O)N2CCCC2)cc1)N1CCOCC1 | -35.2%[inhibitor] | 1.7%[38.3 µM] | 3.6% | -0.8 | 1.9 | 8.9% | -0.9%
O=C(CN1C2CCC1CC(O)(c1cccnc1)C2)Nc1ccc2c(c1)OCO2 (configuration not stated) | 19.1% | 0.9% | -0.9% | 1.5 | 0.1 | -2.0% | -3.3%
Cc1nccn1Cc1ccc(Cl)nc1 | 10.2%[15.4 µM] | 0.7% | 2.7% | -8.0 | 2.0 | -8.2% | x
Cc1ccc2c(c1)C(c1ccccc1)=NCC(=O)N2C | 6.7% | 2.6% | -9.1% | -1.7 | x | x | 0.6%
CC1CCCC(NC(=O)CNC(=S)N2CC3CC(C2)c2cccc(=O)n2C3)C1C (configuration not stated) | -32.2%[inhibitor] | -0.2% | -4.0% | 7.2 | -1.5 | 7.0% | 0.1%
C/C(=N\N1CCCCCC1)c1c(O)n(C2CCCCC2)c(=O)[nH]c1=O | 5.6%[15.4 µM] | 2.2% | -21.0% | -1.6 | 4.9 | -1.4% | x
CCOP(=O)(OCC)C(NC(=O)c1ccc(Cl)cc1)=C(Cl)Cl | -46.4%[inhibitor] | -6.7%[38.3 µM] | -0.8% | 1.9 | 4.7 | 9.7% | -1.1%
CCS(=O)(=O)NC(C)c1nnc2n1-c1ccc(Br)cc1C(c1ccccc1Cl)=NC2 (configuration not stated) | u | -0.4% | -0.5% | -14.4 | x | x | -3.4%
CC(=Nc1ccccc1N)c1c(O)n(C)c(=O)[nH]c1=O | 3.8%[15.4 µM] | -1.5% | 5.9% | 2.9 | 4.1 | 18.7% | -1.6%
CCCCN1C(=O)C(C2c3ccccc3C(=O)N2Cc2ccccc2)C(=O)NC1=S (configuration not stated) | u | 3.0% | -6.2% | -2.1 | 4.3 | -21.3% | 1.0%
Cc1ccc(C(=O)c2cc(Br)ccc2N)cc1 | -36.9%[inhibitor] | 6.5% | 5.7% | 2.4 | 0.2 | 10.4% | 3.2%
CCN1C[C@]2(CO)CC[C@H](OC)[C@@]34C5C[C@H]6[C@H](OC)C5[C@](O)(C[C@H]6OC)[C@@H](C(OC)C23)[C@@H]14 (some centres not stated) | x | -0.4% | 7.0% | -7.1 | x | x | -25.0%
COc1ccc(-c2noc(=O)n2Cc2cc(C)ccc2C)cc1 | -26.1% | 3.9% | 11.7% | 0.7 | -4.4 | 12.8% | 0.1%
CCn1c(O)c(/C=N/NC(=O)c2ccncc2)c(=O)[nH]c1=S | u | 2.6% | 5.4% | 13.3 | 0.6 | -6.5% | -5.2%
COc1ccc(-n2nnnc2C(C2CC2)N2CCC(n3c(=O)[nH]c4ccccc43)CC2)cc1 (configuration not stated) | x | -0.9% | x | u | x | x | -0.1%
CC1(CCl)CN1S(=O)(=O)c1ccccc1 (configuration not stated) | 21.1% | 1.5% | 20.7% | -3.6 | 0.7 | 20.4% | -2.4%
COc1ccc(C(SCC(NC(=O)OCc2ccccc2)C(=O)O)c2ccc(OC)cc2)cc1 (configuration not stated) | 25.1% | 3.3% | x | 2.3 | x | x | -3.0%
N#Cc1ccccc1OCC(=O)N1CCN(CC(=O)Nc2ccc(F)cc2)CC1 | -25.5% | 2.8% | -18.3% | -8.2 | x | x | -6.3%
O=C(CN1CCN(CCO)CC1)Nc1ccc(Cl)cc1C(=O)c1ccccc1 | -26.2% | -4.7%[38.3 µM] | 9.8% | -2.5 | 2.9 | -9.1% | -0.8%
CC(=O)CC(C)(C)n1c[n+](C)nn1 | -32.0%[inhibitor] | x | 5.7% | -4.1 | 3.1 | 24.2% | 0.1%
CCn1ncc(-c2ccnc3cc(C(=O)O)nn23)c1C | 22.1% | -0.4% | 10.2% | -1.0 | 0.3 | u | x
O=c1[nH]c2ccccc2n1C1CCN(C(c2ccccc2OC(F)(F)F)c2nnnn2-c2ccc3c(c2)OCCO3)CC1 (configuration not stated) | x | -0.5% | x | 10.0 | x | x | 0.5%
CC(=O)C1C(N2CC2)CC2C3CC=C4CC(O)CCC4(C)C3CCC21C (configuration not stated) | 16.9% | -4.5% | -0.5% | -3.2 | x | x | x
O=C1NC(=O)C2(Cc3c(nc4ccccn4c3=O)N3CCCCCC32)C(=O)N1Cc1ccccc1 (configuration not stated) | 14.2% | -2.7% | u | -1.5 | 4.3 | -2.5% | -28.4%
C=C1C(=O)O[C@@H]2C[C@@H](C)[C@@H]3C=CC(=O)[C@@]3(C)[C@@H](OC(=O)CC(=O)O[C@H]3[C@@H]4C(=C)C(=O)O[C@@H]4C[C@@H](C)[C@@H]4C=CC(=O)[C@]43C)[C@H]12 | x | 4.6% | 2.3% | -6.5 | 7.7 | 22.4µM* | 2.1%
O=C(c1ccncc1)N1CCC[C@@]2(CCN(Cc3nccs3)C2)C1 | x | -0.5% | x | x | 2.8 | 21.1% | x
Cc1ccc(CCN2CC(C(=O)N3CCC4(CC3)OCCO4)CC2=O)cc1 (configuration not stated) | 9.4% | -0.5% | 0.8% | -0.2 | 2.6 | 2.0% | -0.5%
O=C(CN1CC=C(c2ccccc2)CC1)Nc1c(Cl)cccc1Cl | -4.3% | 2.5% | 0.9% | -3.8 | 14.0 | -0.4% | -3.8%
O=C(Nc1ccccc1)N1CC2(CCN(C(=O)Oc3ccccc3)CC2)C1 | x | -0.5% | x | x | 2.0 | 7.6% | x
CN(Cc1ccc(OC(F)F)cc1)Cc1nc2c(Br)cc(Br)cc2c(=O)[nH]1 | u | 8.4% | -22.1% | 6.7 | 11.1 | -2.1% | -0.2%
Cc1ccc(C2C(=O)NC(=O)NC2=O)cc1 | -26.0%[15.4 µM] | -1.5% | 2.1% | -3.2 | x | x | x
Cn1cnnc1Sc1cc(N2CCNCC2)ccc1[N+](=O)[O-] | -2.0%[15.4 µM] | -0.7% | 2.7% | 1.1 | 1.1 | 5.3% | -2.8%
CN1CCN(c2ccc(Cl)cc2N)CC1 | -8.8% | -0.4% | 3.5% | -5.2 | -1.6 | -6.5% | -1.0%
Cc1ccccc1C(=O)N1Cc2ccccc2-n2nncc2C1 | -23.3% | 0.8% | x | 0.0 | x | x | -0.9%
Fc1ccccc1-c1n[nH]c(=S)n1Cc1ccccc1 | u | 1.3% | 2.1% | -0.6 | 3.4 | 7.9% | -3.3%
Cn1ccc(NC(=O)CCl)n1 | -16.6%[15.4 µM] | 0.8% | 10.4% | -0.5 | -1.0 | 13.6% | x
